Screens (PubChem BioAssay)
ID4 binder: binds human ID4 protein on microarray; calls only; AID 624137; small molecule microarray, Flag-ID4 binding, fluorescence F/B; 1.2% of 31,000 active;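 active means spot signal over background at p below 0.07 in all four prints; compounds were printed on slides so no solution concentration is given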;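 further: a binder raises fluorescence above local background on the spot; about 2 pmol printed per array spot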
Target sequence (P47928 whole entry, looked up): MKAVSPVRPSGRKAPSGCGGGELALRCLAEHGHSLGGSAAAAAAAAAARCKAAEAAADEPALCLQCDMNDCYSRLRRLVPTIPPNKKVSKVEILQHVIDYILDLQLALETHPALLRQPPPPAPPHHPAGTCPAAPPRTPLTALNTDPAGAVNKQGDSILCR
STAT3 SMM: binders of human STAT3 | AID 624138 | 0.2% of 17,000 active | Small molecule microarray, His-STAT3 binding, anti-His fluorescence | P40763 | calls only;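 active means compounds whose four printed spots each show fluorescence over background unusually high for their array block, chance value under 7%; compounds were printed on slides so no solution concentration is given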;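 further: about 2 pmol printed per array spot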
c-Myc SMM: c-Myc (human) binding. 1.5% of 17,000 active. small molecule microarray, His-c-Myc binding, anti-His fluorescence. P01106. AID 624141. calls only;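 active means spot fluorescence over background with P-value below 7% in all four replicate spots, showing protein binding; compounds were printed on slides so no solution concentration is given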;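 further: score is binary with 100 for all four spots passing and 0 otherwise; about 2 pmol printed per array spot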
Target sequence (P01106 whole entry, looked up): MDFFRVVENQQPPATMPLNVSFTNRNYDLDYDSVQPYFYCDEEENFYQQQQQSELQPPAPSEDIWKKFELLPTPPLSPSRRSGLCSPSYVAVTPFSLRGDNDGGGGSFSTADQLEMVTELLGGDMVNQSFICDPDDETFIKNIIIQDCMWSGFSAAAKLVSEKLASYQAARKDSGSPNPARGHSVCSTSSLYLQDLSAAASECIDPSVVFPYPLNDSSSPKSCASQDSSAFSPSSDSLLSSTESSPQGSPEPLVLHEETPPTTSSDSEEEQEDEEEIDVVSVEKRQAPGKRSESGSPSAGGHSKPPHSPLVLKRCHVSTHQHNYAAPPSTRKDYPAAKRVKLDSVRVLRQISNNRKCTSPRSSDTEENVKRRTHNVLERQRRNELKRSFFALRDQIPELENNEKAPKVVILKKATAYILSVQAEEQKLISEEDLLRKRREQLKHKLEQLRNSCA
p53 mut binder: binders of human mutant p53; AID 624136; calls only; small molecule microarray binding, anti-GST fluorescence; 0.4% of 17,000 active;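 active means compounds whose four printed spots each glow above background more than chance allows, each with a p-value under 7%; compounds were printed on slides so no solution concentration is given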;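 further: about 2 pmol printed per array spot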
Calls only; i = inactive; / = not tested or not shown; + = active, no number.

SMILES | ID4 binder | STAT3 SMM | c-Myc SMM | p53 mut binder
CNC[C@@H]1OCc2cn(nn2)CCCC(=O)N([C@H](C)CO)C[C@@H]1C | i | i | i | i
CC(C)NC(=O)N(C)C[C@@H]1OCc2cn(nn2)CCCC(=O)N([C@H](C)CO)C[C@H]1C | i | i | i | i
C[C@H](CO)N1C[C@H](C)[C@@H](CN(C)C)OCc2cnnn2CCCC1=O | i | i | i | i
COc1ccc(NC(=O)Nc2ccc3c(c2)CC(=O)N([C@H](C)CO)C[C@H](C)[C@H](CN(C)S(C)(=O)=O)O3)cc1 | i | i | i | i
COc1ccccc1CN(C)C[C@@H]1OCc2cn(nn2)CCCC(=O)N([C@H](C)CO)C[C@H]1C | i | i | i | i
C[C@@H]1CN([C@@H](C)CO)C(=O)c2cc(NC(=O)Nc3cccc4ccccc34)ccc2O[C@H]1CN(C)C | i | i | i | i
C[C@@H]1CCCCO[C@H](CN(C)Cc2ccccc2)[C@@H](C)CN([C@H](C)CO)C(=O)c2cc(NS(=O)(=O)c3ccccc3)ccc2O1 | i | i | i | i
Cc1noc(C)c1S(=O)(=O)N(C)C[C@H]1OCCCC[C@H](C)Oc2ccc(NC(=O)NC(C)C)cc2C(=O)N([C@@H](C)CO)C[C@@H]1C | i | i | i | i
COC1OC(=O)C(CCC2(C)C(C)CCC3(C)C2CC(O)C(O)C32CO2)C1O (stereo unspecified) | i | i | i | i
C[C@@H]1CN([C@H](C)CO)C(=O)c2cccc(NS(=O)(=O)c3ccc(Cl)cc3)c2O[C@@H]1CN(C)Cc1ccc(Cl)c(Cl)c1 | / | i | i | i
C[C@@H]1CN([C@@H](C)CO)C(=O)c2cccc(NS(=O)(=O)c3ccc(F)cc3)c2O[C@H]1CN(C)Cc1ccc(C(F)(F)F)cc1 | i | i | i | i
CC1CN(CCCn2c3ccccc3c3ccccc32)CC(C)N1 (stereo unspecified) | i | i | i | i
COC(=O)c1c(NC(=S)Nc2cccc(NC(C)=O)c2)sc(C(=O)N(C)C)c1C | i | i | i | i
C[C@H](CO)N1C[C@H](C)[C@@H](CN(C)C(=O)Nc2cccc3ccccc23)Oc2c(NC(=O)c3ccc(-c4nccs4)cc3)cccc2C1=O | i | i | i | i
Cc1cc(C)cc(NC(=O)CN(c2ccc(Cl)cc2Cl)S(C)(=O)=O)c1 | i | i | i | i

Part of the list above, reformatted.
| smiles | ID4 binder | STAT3 SMM | c-Myc SMM | p53 mut binder |
| --- | --- | --- | --- | --- |
| C[C@@H]1CN([C@@H](C)CO)C(=O)c2cc(NC(=O)Nc3cccc4ccccc34)ccc2O[C@H]1CN(C)C | i | i | i | i |
| COC(=O)c1c(NC(=S)Nc2cccc(NC(C)=O)c2)sc(C(=O)N(C)C)c1C | i | i | i | i |
| C[C@@H]1CN([C@H](C)CO)C(=O)c2cccc(NS(=O)(=O)c3ccc(Cl)cc3)c2O[C@@H]1CN(C)Cc1ccc(Cl)c(Cl)c1 | / | i | i | i |

(more compounds)
SMILES | ID4 binder | STAT3 SMM | c-Myc SMM | p53 mut binder
C[C@@H]1CN([C@@H](C)CO)C(=O)Cc2cc(NC(=O)c3ccncc3)ccc2O[C@@H]1CN(C)S(C)(=O)=O | / | i | i | i
O=C(COc1cccc(NC(=O)c2ccc(Br)cc2)c1)c1ccc(F)cc1 | i | i | i | i
CC1=C(C(=O)Nc2ccccc2C)C(c2cccc(F)c2)n2nc(CCCO)nc2N1 (stereo unspecified) | i | i | i | i
C[C@H](CO)N1C[C@H](C)[C@@H](CN(C)S(=O)(=O)c2cn(C)cn2)OCCCC[C@H](C)Oc2ccc(NS(C)(=O)=O)cc2C1=O | i | i | i | i
C[C@H]1CN([C@@H](C)CO)C(=O)c2cccc(NC(=O)c3ccc(-c4nccs4)cc3)c2O[C@H]1CN(C)S(=O)(=O)c1cccs1 | i | i | i | i
O=C(C1=C[C@@H](c2ccc3c(c2)Cc2ccccc2-3)C[C@@H](OCc2ccc(CO)cc2)O1)N1CCCCC1 | i | i | i | i
C[C@@H]1CN([C@@H](C)CO)C(=O)c2cc(NC(=O)Nc3ccc4c(c3)OCO4)ccc2O[C@@H]1CN(C)Cc1ccncc1 | i | i | i | i
COc1ccc(OCC(=O)Nc2cc(OC)c(Cl)cc2OC)cc1 | i | i | i | i
O=C(Nc1cccc(OCC(=O)N2CCOCC2)c1)C1CCCCC1 | i | i | i | i
C[C@H]1CN([C@@H](C)CO)C(=O)c2cccc(NC(=O)c3nc4ccccc4s3)c2O[C@@H]1CN(C)S(=O)(=O)c1cccs1 | i | i | i | i
O=C1c2ccccc2C(=O)N1CC1CCN(Cc2cccc(OCCO)c2)CC1 | i | i | + | i
C[C@H]1CN([C@@H](C)CO)C(=O)Cc2cc(NS(C)(=O)=O)ccc2O[C@@H]1CN(C)C(=O)Nc1ccc(C(F)(F)F)cc1 | i | i | i | i
C[C@@H]1CN([C@H](C)CO)C(=O)c2cccc(NC(=O)c3ccncc3)c2O[C@H]1CN(C)S(=O)(=O)c1cn(C)cn1 | i | i | i | i
c1cc2c3c(c1)c1c(n3CCNC2)CCCC1 | i | i | i | i
CC(C)NC(=O)Nc1ccc2c(c1)C(=O)N([C@@H](C)CO)C[C@@H](C)[C@H](CN(C)S(=O)(=O)c1cn(C)cn1)OCCCC[C@H](C)O2 | i | i | i | i
C[C@@H]1O[C@@H](Oc2ccc(-c3coc4cc(O[C@@H]5O[C@@H](C)[C@H](O)[C@@H](O)[C@H]5O)cc(O)c4c3=O)cc2)[C@H](O)[C@H](O)[C@H]1O | i | i | i | i
COc1ccc(CN(C)C[C@@H]2Oc3ccc(NS(=O)(=O)c4ccc(Cl)cc4)cc3CC(=O)N([C@@H](C)CO)C[C@H]2C)cc1 | i | i | i | i
CC(=O)c1cn(CC(=O)NCC2CCCO2)c2ccccc12 (stereo unspecified) | i | i | i | i
COc1ccc([C@H]2C[C@H]3C(I)=CC2C(=O)[C@]32CO2)cc1OC | i | i | i | i
Oc1ccccc1Cn1c(-c2ccccc2O)nc2ccccc21 | i | i | i | i
C=CC[C@]1(C(=O)N2CCOCC2)COC(c2ccc(OCCCO)cc2)=N1 | i | i | i | i
Cc1noc(C)c1NC(=O)Nc1ccc2c(c1)C(=O)N([C@H](C)CO)C[C@H](C)[C@H](CN(C)C(=O)CCCN(C)C)OCCCC[C@@H](C)O2 | i | i | i | i
C[C@@H]1CCCCO[C@@H](CN(C)Cc2ccc(C(=O)O)cc2)[C@H](C)CN([C@@H](C)CO)C(=O)c2cc(NC(=O)Nc3ccc(C(F)(F)F)cc3)ccc2O1 | / | i | i | i
CCOC(=O)Cc1csc(NC(=O)c2sc3cccc(F)c3c2Cl)n1 | i | i | i | i
CC(=O)Nc1ccc(C(=O)CSc2nnc(-c3ccncc3)o2)cc1 | i | i | i | i
CNC[C@@H]1Oc2ccc(NC(=O)CCC(F)(F)F)cc2C(=O)N([C@H](C)CO)C[C@H]1C | i | i | i | i
C[C@@H]1CC[C@]2(C(=O)OC3OC(CO)C(OC4OC(CO)C(O)C(O)C4O)C(O)C3O)CC[C@]3(C)C(=CCC4[C@@]5(C)CC[C@H](O)[C@](C)(C(=O)O)C5CC[C@]43C)C2[C@]1(C)O (stereo partly specified) | i | i | i | i
Cc1ccc(-c2nc3ccccc3o2)cc1NC(=O)C(C)(C)Oc1ccc(Cl)cc1 | i | i | i | i
C[C@@H]1CCCCO[C@@H](CN(C)Cc2ccc(C(=O)O)cc2)[C@H](C)CN([C@@H](C)CO)C(=O)c2cc(NC(=O)c3ccccc3)ccc2O1 | / | i | i | i
C[C@H]1CN([C@@H](C)CO)C(=O)c2cccc(NC(=O)Nc3ccc(C(F)(F)F)cc3)c2O[C@@H]1CN(C)C | i | i | i | i

Profiles, quoted from the list. Values in the order: ID4 binder, STAT3 SMM, c-Myc SMM, p53 mut binder
C[C@@H]1CN([C@@H](C)CO)C(=O)c2cc(NC(=O)Nc3cccc4ccccc34)ccc2O[C@H]1CN(C)C as listed: i, i, i, i
Oc1ccccc1Cn1c(-c2ccccc2O)nc2ccccc21 as listed: i, i, i, i
C[C@@H]1CN([C@@H](C)CO)C(=O)c2cc(NC(=O)Nc3ccc4c(c3)OCO4)ccc2O[C@@H]1CN(C)Cc1ccncc1 as listed: i, i, i, i
C[C@@H]1CCCCO[C@H](CN(C)Cc2ccccc2)[C@@H](C)CN([C@H](C)CO)C(=O)c2cc(NS(=O)(=O)c3ccccc3)ccc2O1 as listed: i, i, i, i
C[C@@H]1CN([C@@H](C)CO)C(=O)Cc2cc(NC(=O)c3ccncc3)ccc2O[C@@H]1CN(C)S(C)(=O)=O as listed: /, i, i, i

The list continues:
SMILES | ID4 binder | STAT3 SMM | c-Myc SMM | p53 mut binder
CCO[C@H]1OC(C(=O)NCc2ccccc2)=C[C@@H](C2CC2)[C@@H]1CCCO | i | i | i | i
C[C@@H]1CN([C@@H](C)CO)C(=O)c2cccc(NC(=O)NC3CCCCC3)c2O[C@@H]1CN(C)C(=O)Nc1ccccc1 | i | i | i | i
COc1ccc(NC(=O)Nc2ccc3c(c2)CC(=O)N([C@H](C)CO)C[C@H](C)[C@@H](CN(C)C)O3)cc1 | i | i | i | i
C[C@@H]1CN([C@@H](C)CO)C(=O)c2cc(NS(=O)(=O)c3ccccc3)ccc2O[C@@H](C)CCCCO[C@H]1CN(C)C(=O)C1CCCCC1 | i | i | i | i
CNC[C@@H]1OCCCC[C@H](C)Oc2ccc(NC(=O)NC(C)C)cc2C(=O)N([C@H](C)CO)C[C@@H]1C | i | i | i | i
C[C@H](CO)N1C[C@H](C)[C@@H](CN(C)C)OCCCC[C@H](C)Oc2ccc(NC(=O)c3ccncc3)cc2C1=O | i | i | i | i
CNC[C@H]1OCCCC[C@@H](C)Oc2ccc(NS(=O)(=O)c3cccs3)cc2C(=O)N([C@H](C)CO)C[C@@H]1C | i | i | i | i
CCCCC(=O)NCCc1c(Cc2ccccc2)[nH]c2ccccc12 | i | i | i | i
CCOc1ccccc1Nc1nc(Nc2ccccc2OCC)nc(Sc2nnc(C)s2)n1 | i | i | i | i
COc1ccc(S(=O)(=O)Nc2ccc3c(c2)C(=O)N([C@@H](C)CO)C[C@H](C)[C@@H](CN(C)Cc2ccc4c(c2)OCO4)OCCCC[C@@H](C)O3)cc1 | / | i | i | i
C[C@@H]1CN([C@H](C)CO)C(=O)c2cccc(NC(=O)NC3CCCCC3)c2O[C@H]1CN(C)S(=O)(=O)c1cccs1 | i | i | i | i
C[C@H]1CN([C@@H](C)CO)C(=O)Cc2cc(NC(=O)Nc3ccc(F)cc3)ccc2O[C@H]1CN(C)C(=O)NC1CCCCC1 | i | i | i | i
CC(=O)c1cn(CC(=O)NCc2cccnc2)c2ccccc12 | i | i | i | i
COc1ccccc1CNC(=O)c1cnn2c(C(F)F)cc(C)nc12 | i | i | i | i
COc1cc(C2CC(=O)c3c(O)cc(O)cc3O2)ccc1O (stereo unspecified) | i | i | i | i
CC(C)c1ccccc1NC(=O)CSc1nc(-c2ccccc2)cc(=O)[nH]1 | i | i | i | i
O=S(=O)(N[C@@H]1CCCN(Cc2ccc(OCCO)cc2)C1)c1cccc2cccnc12 | + | i | i | i
C[C@H]1CN([C@@H](C)CO)C(=O)c2cccc(NC(=O)Nc3cccc4ccccc34)c2O[C@H]1CN(C)Cc1ccncc1 | i | i | i | i
C[C@H](CO)N1C[C@H](C)[C@H](CN(C)Cc2ccc(C(=O)O)cc2)Oc2c(NC(=O)NC3CCCCC3)cccc2C1=O | i | i | i | i
O=c1cc(CSc2nc3ccccc3[nH]2)c2ccccc2[nH]1 | i | i | i | i
Nc1cccc2c(=O)[nH]ccc12 | i | i | i | i
C[C@H](CO)N1C[C@H](C)[C@@H](CN(C)C(=O)Nc2ccc(F)cc2)Oc2ccc(NC(=O)Cc3ccccc3)cc2C1=O | i | i | i | i
c1ccc(-c2[nH]ncc2-c2ccnc3ccccc23)nc1 | i | i | i | i
Cn1cnnc1Sc1c([N+](=O)[O-])ncn1C | i | i | i | i
C[C@H]1CN([C@@H](C)CO)C(=O)CCCn2nncc2CO[C@H]1CN(C)S(=O)(=O)c1ccc(Cl)cc1 | i | i | i | i
C[C@H](CO)N1C[C@H](C)[C@H](CN(C)C)OCc2cnnn2CCCC1=O | i | i | i | i
CCOc1ccc(-c2nnc(SCC(=O)O)n2-c2ccccc2)cc1 | i | i | i | i
C=CC1C(=C)CCC2C1CCC1C(C)(C(=O)O)CCCC21C (stereo unspecified) | i | i | i | i
C=CCNC1=C2C[C@@H](C)C[C@H](OC)[C@H](O)[C@@H](C)/C=C(\C)[C@H](OC(N)=O)[C@@H](OC)C=C/C=C(/C)C(=O)NC(=CC1=O)C2=O | / | i | i | i
Cc1cccc(-c2nnc(SCC(=O)Nc3ccc(Br)cc3C(C)C)n2C)c1 | i | i | i | i
COC(=O)c1ccccc1NC(=O)Cn1nnc(-c2ccc(SC)cc2)n1 | i | i | i | i
C=N[C@@H](C(=O)N[C@@H]1C(=O)N2[C@@H]1SC(C)(C)[C@@H]2C(=O)O)c1ccccc1 | i | i | i | i
C[C@H](CO)N1C[C@H](C)[C@H](CN(C)S(=O)(=O)c2ccccc2)OCCCC[C@H](C)Oc2ccc(NS(C)(=O)=O)cc2C1=O | i | i | i | i
C[C@@H]1CN([C@H](C)CO)C(=O)CCCn2cc(nn2)CO[C@@H]1CN(C)C(=O)c1ccc2ccn(C)c2c1 | i | i | i | i
Cc1ccc(S(=O)(=O)N(C)C[C@H]2Oc3ccc(NS(C)(=O)=O)cc3C(=O)N([C@@H](C)CO)C[C@H]2C)cc1 | i | i | i | i
Cc1ccc(-c2nnc(SCC(=O)Nc3ccc(Br)c(C)c3)n2C)cc1 | i | i | i | i

Not all compounds are listed. The share of hits here may be higher or lower than overall.
